# TRPML1 inh = human mucolipin-1 channel inhibition; Q9GZU1; TRPML1-inducible cells, Ca2+ dye fluorescence, FDSS; stronger effect = lower value; inhibition of EC80 agonist-evoked calcium signal; activity change, negative = inhibition, % (test concentration not listed); 0.02% of 390,000 active; in the data active means activity change below about -50%; inconclusive means about -30% to -50%; inactive means above about -30%;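 also: stimulus is agonist 54-4 at its EC80 concentration; % is scaled to controls: 0 for no effect and ±100 for the full control effect; compound concentration not given in the record; the text of the record puts the active cut at -80%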
# Target sequence (Q9GZU1 whole entry, looked up): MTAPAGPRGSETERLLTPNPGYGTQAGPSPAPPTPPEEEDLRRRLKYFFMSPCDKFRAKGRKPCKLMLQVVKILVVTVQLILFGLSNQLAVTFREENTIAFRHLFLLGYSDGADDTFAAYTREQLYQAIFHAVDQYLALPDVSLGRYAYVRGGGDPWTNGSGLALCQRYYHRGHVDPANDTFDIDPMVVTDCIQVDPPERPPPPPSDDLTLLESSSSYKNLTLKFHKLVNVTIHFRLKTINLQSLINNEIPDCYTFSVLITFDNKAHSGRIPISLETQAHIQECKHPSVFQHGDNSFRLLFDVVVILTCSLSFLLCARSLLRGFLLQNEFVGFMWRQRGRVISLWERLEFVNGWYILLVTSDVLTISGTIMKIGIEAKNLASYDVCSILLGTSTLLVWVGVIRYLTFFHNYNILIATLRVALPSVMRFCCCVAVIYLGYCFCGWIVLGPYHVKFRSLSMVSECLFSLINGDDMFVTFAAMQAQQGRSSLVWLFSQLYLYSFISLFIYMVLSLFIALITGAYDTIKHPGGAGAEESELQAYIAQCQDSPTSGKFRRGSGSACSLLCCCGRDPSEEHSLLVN
#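 Tet-induced TRPML1-DL cells loaded with Ca8 no-wash calcium dye were read kinetically on FDSS. Compound addition was followed by EC80 agonist 54-4 (4 uM final); inhibition was read over 110 s.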
# D2 potentiator = human D2 receptor positive allosteric modulation. P14416. DiscoveRx D2 beta-arrestin cells, luminescence, 90 min; 100% = 57 uM dopamine signal. potentiation, % (no concentration beside the values). 0.23% of 360,000 active; active = potentiation of 50% or more; inconclusive = 30% to 50%; inactive = 30% or less;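 also: compound concentration not given in the record; tested on top of an EC20 dose of dopamine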
# Target sequence (P14416 whole entry, looked up): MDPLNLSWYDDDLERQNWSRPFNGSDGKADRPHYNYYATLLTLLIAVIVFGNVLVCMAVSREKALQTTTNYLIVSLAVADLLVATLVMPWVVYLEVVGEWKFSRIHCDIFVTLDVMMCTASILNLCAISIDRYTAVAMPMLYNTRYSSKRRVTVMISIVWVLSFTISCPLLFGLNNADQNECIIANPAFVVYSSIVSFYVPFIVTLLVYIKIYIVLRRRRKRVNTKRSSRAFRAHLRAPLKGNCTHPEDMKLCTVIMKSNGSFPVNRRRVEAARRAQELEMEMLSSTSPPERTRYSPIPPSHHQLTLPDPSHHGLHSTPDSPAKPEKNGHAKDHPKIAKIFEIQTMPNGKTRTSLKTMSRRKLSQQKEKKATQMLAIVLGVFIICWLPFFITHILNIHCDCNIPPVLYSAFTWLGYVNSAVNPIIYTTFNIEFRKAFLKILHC
#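 D2 cells co-treated with compound plus 50 nM dopamine (EC20) for 90 min at 37 deg C to detect potentiation. Beta-arrestin recruitment was read as enzyme-fragment luminescence after 1 h at ambient temperature. Full response was set by 57 uM dopamine.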
# TRPV1 PAM = enhances activation of the human vanilloid receptor TRPV1; TRPV1-expressing cells, Fluo-8 calcium influx, capsaicin EC20 potentiation; host cell line not named in the record; control for the full effect not named in the record; potentiation, % at 8.33 µM; 0.02% of 320,000 active; active means potentiation above 80%; inconclusive means 30% to 80%; inactive means below 30%; also: 0% is about no effect
#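 TRPV1-expressing cells were cultured overnight at 35.5C and loaded with Fluo-8 calcium dye for 40 to 90 min at room temperature. After a 10 s baseline, compound was added and calcium influx was read kinetically for 3 min (ex 480/em 520 nm).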
# TRPML1 agonist = activates the human TRPML1 channel | Q9GZU1 | TRPML1-expressing cells, Ca2+ dye fluorescence, FDSS; host cell line not named in the record; reference of the full effect not given here | activation, % (test concentration not listed) | 0.12% of 410,000 active | AID 624414; in the data active = activation above about 50%; inconclusive = about 30% to 50%; inactive = below about 30%; also: 0% is about no effect; the text of the record puts the active cut at 80%
#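 TRPML1-DL cells, Tet-induced overnight (~16 h, 37 degrees C), loaded 45-90 min at room temperature with Ca8 no-wash calcium dye plus quencher. FDSS fluorescence: 10 s baseline, compound pin-transfer, 110 s agonist read, then EC80 54-4 (4uM final) and 110 s antagonist read.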
# Six1-Eya2 inh = Six1/Eya2 interaction inhibition | Q15475+O00167 | AlphaScreen GST-Six1/His-Eya2 binding, biochemical; stronger effect = lower value; control for the full effect not named in the record | activity change, % (concentration not given with the values) | 0.56% of 360,000 active | AID 651725; in the data active = activity change below about -65%; inconclusive = about -30% to -65%; inactive = above about -30%; also: % is scaled to controls: 0 for no effect and ±100 for the full control effect
#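 Homogeneous AlphaScreen proximity assay pairing GST-Six1 with His-tagged Eya2 (added as 5X mix: 250 nM and 500 nM) in 50 mM Tris pH 8.0, 300 mM NaCl, 1 mM TCEP. Glutathione donor and nickel acceptor beads; 1 h, 37 °C, dark.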
# CtBP-E1A blk = blocks the CtBP interaction with E1A | AlphaScreen GST-E1A/His-CtBP binding, 1536-well; stronger effect = lower value; control for the full effect not named in the record | activity change, % (test concentration not listed) | 0.49% of 340,000 active | AID 651724; in the data active means activity change below about -65%; inconclusive means about -30% to -65%; inactive means above about -30%; also: % is scaled to controls: 0 for no effect and ±100 for the full control effect; compound concentration not given in the record
#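 GST-E1A and His-tagged CtBP (125 nM each as 5X stock) were preincubated with pin-transferred compound for 2 h at 37 °C in the dark, then glutathione donor and nickel acceptor beads were added for 1 h before AlphaScreen reading.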
# * = called active by the depositor; ? = inconclusive; . = no result given.
SMILES,TRPML1 inh,D2 potentiator,TRPV1 PAM,TRPML1 agonist,Six1-Eya2 inh,CtBP-E1A blk
Cc1nn(-c2ccccc2)c(C)c1C(=O)OCC(=O)Nc1ccccc1Cl,6,1,.,0.4,7,7
COc1cccc(Nc2ncc(C(=O)O)c3ccccc23)c1,4,-15,.,-0.5,-3,0
Cc1ccccc1NC(=O)c1cc2c(C)nc3ccccc3c2o1,18,-5,-17,4.4,-13,-11
CCS(=O)(=O)c1ccc2oc(Nc3ccc(C(C)C)cc3)nc2c1,5,-6,7,-0.8,-12,1
CCOc1ccc(S(=O)(=O)N2CCCC(C(=O)NCc3ccncc3)C2)cc1Cl (centres undefined),-12,2,5,0.5,0,-2
CCc1cc2c(C)ccc(C)c2nc1SCC(=O)Nc1cc(C)on1,32,-8,5,1.9,6,0
COc1cc(/C=C2\SC(=S)N(NC(=O)c3cccc(O)c3)C2=O)ccc1O,-1,-12,-7,21,?,?
COc1ccc(S(=O)(=O)n2cnc3ccccc32)cc1OC,.,8,-2,.,1,.
Cc1ccc(-c2nnn(CC(=O)N(c3ccccc3)C(C(=O)NCC3CCCO3)c3cccs3)n2)o1 (centres undefined),-27,-6,3,-0.3,9,-2
COc1ccccc1NC(=O)C(Cc1ccc(Cl)cc1)c1nn[nH]n1 (centres undefined),-6,8,29,-0.8,20,42
NC(=O)C1CCCN(C(=O)c2ccc(NC(=O)c3cccs3)cc2)C1 (centres undefined),14,-2,15,1.3,7,-2
O=C(COC(=O)/C=C/c1ccc2c(c1)OCO2)Nc1ccccc1,0,5,-17,-0.5,-2,-20
O=C1CCCCCC[C@@H](O)[C@H](O)C[C@H](c2ccccc2)O1,.,.,.,-0.3,1,7
Cc1ccc(C(=O)NNC(=O)c2ccco2)cc1,0,8,4,-0.1,10,-14
C=CCn1cccc(C(=O)Nc2ccc(OC)c(Cl)c2)c1=O,10,2,-9,0.2,6,5
Cc1ccc2c(N)c(C(=O)N(c3ccccc3)c3ccccc3)sc2n1,13,-16,-5,2.1,5,-1
COc1cccc(-n2cc(CN(C)Cc3nc(Cc4cccc(F)c4)no3)cn2)c1,17,-3,-14,1.9,-6,-7
Cn1c(=O)cc(OCC(=O)NCc2cccs2)c2ccccc21,1,-8,0,-0.5,4,7
COc1ccccc1N1CCN(CC(=O)Nc2cccc(F)c2)CC1,5,-15,9,0.3,-9,-6
COc1ccccc1NC(=O)Nc1nc(CC(=O)NCc2ccc(F)cc2)cs1,-12,10,3,0.9,-2,0
COc1ccc(OCc2cc(C(=O)NCCN3CCCC(O)C3)no2)c(Cl)c1 (centres undefined),-2,-10,0,0.2,3,5
Cc1ccc(NC(=S)NC(NC(=O)c2ccccc2)C(Cl)(Cl)Cl)c(C)c1 (centres undefined),17,-23,4,2.2,-13,21
Cc1ccc(NC(=O)Cn2c(C)cc(C)c(C#N)c2=O)c(Cl)c1,-9,-3,-2,0.2,24,42
Cc1cc(=O)n2nc(N3CCC(C(=O)NCc4cccc(Br)c4)CC3)sc2n1,12,1,17,-0.7,-23,?

# A draw from above in order of molecular weight, lowest first:
SMILES,TRPML1 inh,D2 potentiator,TRPV1 PAM,TRPML1 agonist,Six1-Eya2 inh,CtBP-E1A blk
COc1ccc(S(=O)(=O)n2cnc3ccccc32)cc1OC,.,8,-2,.,1,.
Cc1ccc2c(N)c(C(=O)N(c3ccccc3)c3ccccc3)sc2n1,13,-16,-5,2.1,5,-1
COc1cc(/C=C2\SC(=S)N(NC(=O)c3cccc(O)c3)C2=O)ccc1O,-1,-12,-7,21,?,?

# (cont.)
SMILES,TRPML1 inh,D2 potentiator,TRPV1 PAM,TRPML1 agonist,Six1-Eya2 inh,CtBP-E1A blk
O=C(CCn1c(=O)oc2ccccc21)Nc1nccs1,19,-2,14,-0.9,3,4
Cn1c(/C(C#N)=C2/CCCCCN2)nc2ccccc21,-1,11,-13,-0.5,-6,4
COc1ccc(CNC(=O)CSc2cccc3cccnc23)cc1,-5,-1,5,2.0,1,-3
COC(=O)c1sccc1NC(=S)Nc1cc(C)ccc1OC,25,1,-13,1.4,0,.
CC(C)=CCc1cc([C@@H]2CC(=O)c3ccc(O)c(CC=C(C)C)c3O2)ccc1O,.,-11,.,.,-3,-1
Cc1occc1C(=O)NCc1ccccc1,10,-9,8,-0.6,-16,2
CCOc1cc(/C=N/O)ccc1OCc1ccccc1F,?,0,3,1.9,6,8
Cc1ccc(S(=O)(=O)N(C)c2ccccc2C(=O)Nc2ccc3c(c2)OCCO3)cc1,48,-8,3,1.4,0,-3
O=C(C=Cc1ccc2c(c1)OCO2)c1ccccc1,9,-4,.,-1.1,-7,3
CC(C)(C)c1ccc(S(=O)(=O)NCc2ccc(C(=O)NCC3CCCO3)cc2)cc1 (centres undefined),-8,-5,6,0.2,4,8
CCN1CCc2c(sc(NC(=O)c3ccc(C(=O)c4ccccc4)cc3)c2C(N)=O)C1,16,-9,1,0.9,-11,-12
CCSc1nnc(NC(=O)Cc2ccc(OC)cc2)s1,20,-25,6,1.2,0,-1

# Random excerpt: 3 compounds from above
SMILES,TRPML1 inh,D2 potentiator,TRPV1 PAM,TRPML1 agonist,Six1-Eya2 inh,CtBP-E1A blk
Cc1ccc(S(=O)(=O)N(C)c2ccccc2C(=O)Nc2ccc3c(c2)OCCO3)cc1,48,-8,3,1.4,0,-3
O=C(C=Cc1ccc2c(c1)OCO2)c1ccccc1,9,-4,.,-1.1,-7,3
COC(=O)c1sccc1NC(=S)Nc1cc(C)ccc1OC,25,1,-13,1.4,0,.

# Remaining list, next part:
SMILES,TRPML1 inh,D2 potentiator,TRPV1 PAM,TRPML1 agonist,Six1-Eya2 inh,CtBP-E1A blk
Cc1cccc(NC(=O)Cc2nnc(NC(=O)Nc3ccccc3F)s2)c1,6,-2,5,0.5,-1,.
Cc1oc(-c2ccc(Cl)cc2)nc1CS(=O)CC(=O)NCc1ccco1 (centres undefined),-2,-5,17,0.3,-4,-1
O=C(CSc1nnc(COc2ccccc2)o1)NC1CC2CCC1C2 (centres undefined),-3,-12,3,1.6,4,13
Cc1[nH]c(=O)[nH]c(=O)c1S(=O)(=O)N1CCN(c2ccccc2)CC1,-12,-2,7,0.0,4,-1
COc1ccc(OCc2cc(C(=O)NC3Cc4ccccc4C3)no2)c(Cl)c1,-5,5,2,3.9,1,-7
Cc1cc(C)cc(N=c2c([N+](=O)[O-])nn(-c3ccc4c(c3)OCCO4)n2O)c1,-1,3,-14,0.8,?,?
Cc1cc(OC(C)C(=O)NCc2ccccn2)c2c(C)c(C)c(=O)oc2c1 (centres undefined),-8,-5,0,-0.4,0,1
Cc1cc([N+](=O)[O-])nn1CC(=O)Nc1ccc(F)cc1,9,-2,-22,-0.1,-2,3
COc1ccc(-n2nnnc2SCC(=O)Nc2ccccc2)cc1,1,2,14,1.0,0,0
NS(=O)(=O)c1cc(C2(O)NC(=O)c3ccccc32)ccc1Cl (centres undefined),1,-7,2,0.2,4,3
COc1ccc(-n2nnnc2SCC(=O)N2CCN(C(=O)c3ccco3)CC2)cc1OC,-2,-8,-6,0.6,10,-3
COC(CNC(=O)CN1C(=O)COc2ccc(S(=O)(=O)N3CCOCC3)cc21)OC,-3,-1,1,0.0,2,2
Cc1cc(C2=NNC(=Nc3ccc(S(=O)(=O)N4CCOCC4)cc3)SC2)c(C)n1C,-12,-1,24,-0.8,-13,-1
Cc1nc(Nc2ncc3c(n2)CC(C)(C)CC3=O)nc2ccccc12,.,-3,.,.,7,4
CCCC(NS(=O)(=O)c1ccc(C)cc1)C(=O)O (centres undefined),-16,12,-7,2.3,1,3
O=C(CSc1nc2ccccc2o1)Nc1nc(-c2ccccc2)c(-c2ccccc2)s1,-14,-18,10,-0.2,-4,-8
CN(C)c1ccc(CNC2C3CC4CC(C3)CC2C4)cc1 (centres undefined),6,-11,2,0.7,-18,-18
CCOC(=O)CNc1c(-c2ccccc2)nc2ccc(Cl)cn12,3,16,-10,0.5,2,2
CN1CCN(c2ccc(NC(=O)c3cccs3)cc2)CC1,-7,-22,0,0.2,3,19
CCOc1ccc(CN(C(=O)c2ccccn2)c2ccc(OC)c(Cl)c2)cc1,32,4,-16,-0.2,-2,21
O=C(NCc1ccc2c(c1)OCO2)Oc1ccccc1,-10,-7,-5,-0.2,2,13
COc1ccc(C(=O)NC2CCCc3c2cnn3-c2ccccc2F)o1 (centres undefined),9,-10,-23,1.3,0,.
CN(C=C1C(=O)CC(C)(C)CC1=O)CCN1CCNCC1,2,16,-5,2.4,3,6
Cc1ccc(CNC(=O)C2CCC(=O)N(CCc3ccccn3)C2)s1 (centres undefined),-11,-17,-1,-0.4,0,-5
O=C(O)CCc1ccc(-c2ccccc2)n1NC(=O)c1cccs1,-14,-3,-2,0.0,-5,-21
CCCN(CCC(=O)Nc1cc(OC)cc(OC)c1)CC1CC1,17,-34,-6,0.7,2,-1
COc1ccc2c(c1)c(/C=N/Nc1nc3ccccc3[nH]1)c(C)n2C,-1,-6,11,-0.3,?,?
O=c1ccc2cc(S(=O)(=O)N3CCN(c4ccccc4F)CC3)ccc2[nH]1,18,-2,-24,-0.8,-2,-2
Cc1ccc(S(=O)(=O)CCc2nc3ccccc3[nH]2)cc1C,12,-14,-19,-0.1,11,0
CCOC(=O)Cc1csc(NC(=O)CSc2nnc(-n3nc(C)cc3C)c3ccccc23)n1,-4,-8,15,-0.3,-4,-6
CCOc1ccc(NC(=O)C2CC(=O)N(C)C(=Nc3ccc4c(c3)OCO4)S2)cc1 (centres undefined),10,-7,3,0.7,-2,2
COc1ccc(NC(=O)c2cc([N+](=O)[O-])ccc2N2CCCCC2)cc1,-11,-5,0,0.5,-17,-22
CCOc1ccccc1NC(=S)N(CCOC)C1CCN(C(C)=O)CC1,-15,-1,-5,0.5,2,7
O=C(COc1ccccc1)Nc1cccc2c1CCCC2,-1,-4,.,1.4,19,10
Cc1ccc(C(N)=O)cc1S(=O)(=O)Nc1cccc(C)c1C,-1,0,9,-0.9,6,6
CCOC(=O)C1=C(N)Oc2cc(O)ccc2C1c1ccc([N+](=O)[O-])cc1 (centres undefined),33,-1,-8,1.0,-4,-5
COC(=O)c1cc(Br)c(=O)n(-c2ccccc2F)c1,3,-14,-6,-1.0,-3,-1
c1ccc(-c2oc3ncnc(NCCCn4ccnc4)c3c2-c2ccccc2)cc1,22,-5,7,1.9,-24,-19
CCNC(=S)NN=C1CCC(C(C)(C)C)CC1 (centres undefined),-7,-8,-20,-0.5,-4,5
C=CCC[C@H](Cc1ccc(F)cc1)C(=O)OC[C@@H]1CCCN1C(=O)[C@@H](CC=C)CC(=O)NCCO,11,-5,.,-0.6,3,2
O=C(NCc1ccco1)c1cnn2c(C(F)(F)F)cc(-c3cccs3)nc12,-16,-5,-13,0.0,?,-22
Cc1cccc(C)c1OCC(=O)NNC(=O)CCCn1c(=O)oc2ccccc21,8,-2,.,-0.4,2,0
COc1ccc(C2(CNC(=O)c3ccc(C)cc3)CCOCC2)cc1,1,-8,2,-1.0,2,9
COc1ccc(C(=O)Nc2ccc(Cl)cc2C(=O)NCCO)cc1,4,-19,7,0.5,2,2
COc1ccccc1NC(=O)c1cc(C(=O)Nc2ccccc2OC)cc(N2C(=O)CCC2=O)c1,-14,-1,6,-0.7,9,4
O=C(O)/C=C/c1ccc([N+](=O)[O-])o1,18,2,9,1.8,-16,-20

# Source: PubChem (National Center for Advancing Translational Sciences (NCATS))

# Compounds were not picked by outcome, and some 0.95% of all compounds hit somewhere here.
